Vaccinia inh: blocks a specific stage of Vaccinia orthopoxvirus infection, primary screen, cell-based, single point; actives 0.01% (n = 89,000); Vaccinia-infected cells, mCherry/Venus stage reporter fluorescence; active compounds read low; some inactives read as strong as hits; activity change (mCherry), % (concentration not given with the values);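 active = mCherry past -33% and 40 or more points under the early reporter, replicates agreeing; inconclusive = past -33% without that gap or agreement; tested in A549 cells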;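 note: scaled between vehicle wells and reference inhibitor wells; 23 nL library stock went into each well; one replicate is shown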
Vaccinia inh Venus: second read-out of Vaccinia inh, no call of its own (marks repeat the call); activity change (Venus), %; measured here: Venus reporter, other viral stage;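 negative = less Venus signal; first of two replicates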
Active calls of the source: *; ? = inconclusive; · = not tested or not shown; & = joins results of further samples. The list is partial; count on the stated rates, not on these rows.

Every second line gives: Vaccinia inh, Vaccinia inh Venus
Cc1noc(C)c1NC(=O)Nc1ccc2c(c1)C(=O)N([C@H](C)CO)C[C@@H](C)[C@H](CN(C)S(=O)(=O)c1ccccc1)OCCCC[C@@H](C)O2
 : 4, -1
Cc1noc(C)c1S(=O)(=O)N(C)C[C@H]1OCCCC[C@H](C)Oc2ccc(NC(=O)CCCN(C)C)cc2C(=O)N([C@H](C)CO)C[C@H]1C
 : 9, 9
CN1CCN(C(=O)C[C@H]2CC[C@H]3[C@@H](COC[C@@H](O)CN3Cc3ccc(Oc4ccccc4)cc3)O2)CC1
 : ?, ·
COCC(=O)Nc1ccc2c(c1)[C@@H]1C[C@H](CC(=O)N3CCOCC3)O[C@@H](CO)[C@@H]1O2
 : 12, 11
COCC(=O)Nc1ccc2c(c1)[C@@H]1C[C@H](CC(=O)NCc3ccccc3F)O[C@@H](CO)[C@@H]1O2
 : -8, 9
CCC(=O)N(C)C[C@H]1Oc2ncc(C#CC3(O)CCCC3)cc2C(=O)N([C@@H](C)CO)C[C@H]1C
 : 5, -2
O=S(=O)(c1ccccc1)N1CC[C@@H]2[C@H]1c1cc(C#Cc3ccccc3F)ccc1N[C@@H]2CO
 : 6, -1
COc1ccc(NC(=O)Nc2ccc3c(c2)C(=O)N([C@@H](C)CO)C[C@H](C)[C@@H](CN(C)Cc2ccncc2)OCCCC[C@H](C)O3)cc1
 : 9, -2
COc1cccc(S(=O)(=O)N[C@H]2CC[C@@H](CCNC(=O)Nc3cc(F)ccc3F)O[C@@H]2CO)c1
 : -17, -7
COc1ccc(C#Cc2ccc3c(c2)O[C@@H](CN(C)C)[C@H](C)CN([C@@H](C)CO)S3(=O)=O)cc1
 : ?, ·
COc1cccc(C#Cc2ccc3c(c2)[C@H]2[C@H](CCN2C(=O)CC2CC2)[C@H](CO)N3)c1
 : 3, 7
CN(C)C(=O)c1ccc(-c2ccc([C@@H]3[C@@H](CO)N(C(=O)Cc4ccccn4)[C@H]3C#N)cc2)cc1
 : 10, -2
Cc1ccccc1-c1ccc(C2[C@H]3CNC[C@@H]2N3S(=O)(=O)c2cccc(F)c2)cc1 (stereo partly drawn)
 : 2&-3, 0&10
Cc1ccc(S(=O)(=O)Nc2ccc3c(c2)C(=O)N([C@@H](C)CO)C[C@@H](C)[C@@H](CN(C)C(=O)CCC(F)(F)F)OCCCC[C@@H](C)O3)cc1
 : -28, -25
C[C@H](CO)N1C[C@H](C)[C@H](CN(C)S(=O)(=O)c2cn(C)cn2)OCCCC[C@H](C)Oc2ccc(NC(=O)NC3CCCCC3)cc2C1=O
 : 24, 9
C[C@@H]1CCCCO[C@@H](CN(C)S(=O)(=O)c2ccc(Cl)cc2)[C@H](C)CN([C@@H](C)CO)C(=O)c2cc(NC(=O)c3ccccc3)ccc2O1
 : ?, ·
C[C@@H]1CN([C@H](C)CO)C(=O)c2cc(NS(=O)(=O)c3ccc(Cl)cc3)ccc2O[C@@H](C)CCCCO[C@H]1CN(C)C(=O)Nc1ccc(F)cc1
 : -4, 7
CCCC(=O)Nc1ccc2c(c1)OC[C@H](C)N(Cc1ccccn1)C[C@H](C)[C@H](OC)CN(C)C2=O
 : -7, -9
CCCNC(=O)C[C@@H]1C[C@@H]2c3cc(NC(=O)C4CCOCC4)ccc3O[C@@H]2[C@H](CO)O1
 : -3, -4
CCC(=O)N1C[C@H](C)[C@H](OC)CN(C)C(=O)c2ccc(NS(C)(=O)=O)cc2OC[C@H]1C
 : 6, 6
C[C@@H]1CN([C@H](C)CO)C(=O)c2cccc(NC(=O)C3CCCCC3)c2O[C@@H]1CN(C)C
 : 11, 7
CO[C@@H]1CC[C@@H]2CCN(C)C(=O)[C@H](C)N(C)C(=O)c3cccc(C#N)c3OC[C@H]1O2
 : 15, 9
C/C=C/c1ccc([C@@H]2[C@@H](CO)N3C(=O)CN(C(=O)c4ccncc4)C[C@H]23)cc1
 : 9, 3
O=C(C[C@H]1CC[C@@H]2[C@H](COC[C@@H](O)CN2S(=O)(=O)c2ccccc2F)O1)NCc1ccccc1F
 : 19, 9
COc1ccc(NC(=O)Nc2ccc3c(c2)C(=O)N([C@@H](C)CO)C[C@@H](C)[C@@H](CN(C)S(=O)(=O)c2cccs2)O3)cc1
 : ?, ·
CCCC(=O)Nc1ccc2c(c1)C(=O)N(C)C[C@H](OC)[C@@H](C)CN(CCc1ccccc1)[C@@H](C)CO2
 : -29, -22
COc1ccc2c3c([nH]c2c1)[C@@H](CO)N(C(=O)c1ccccn1)CC31CCN(C(=O)C2CCC2)CC1
 : 7, -1
COCC(=O)N(C)C[C@@H]1Oc2ncc(C#Cc3ccc(OC)cc3)cc2C(=O)N([C@H](C)CO)C[C@@H]1C
 : 26, 23
C[C@H](CO)N1C[C@H](C)[C@@H](CN(C)Cc2ccc(C(F)(F)F)cc2)Oc2c(NC(=O)c3ccncc3)cccc2C1=O
 : -3, -1
COc1ccc(NC(=O)N(C)C[C@H]2Oc3ccc(N(C)C)cc3C(=O)N([C@@H](C)CO)C[C@@H]2C)cc1
 : -9, -18
CCC(=O)N(C)C[C@@H]1Oc2cc(-c3ccc(C#N)cc3)ccc2S(=O)(=O)N([C@H](C)CO)C[C@@H]1C
 : 0, 2
CCCN1C[C@@H](C)[C@H](OC)CN(C)C(=O)c2ccc(NC(=O)c3cccc(OC)c3)cc2OC[C@@H]1C
 : 4, 4
C[C@@H]1CN([C@H](C)CO)C(=O)c2c(c3ccccc3n2C)-c2ccccc2CO[C@H]1CN(C)S(=O)(=O)c1ccc(C#N)cc1
 : -33, -24
COc1ccccc1-c1ccc2c(c1)O[C@@H](CN(C)C(=O)Nc1cccc(F)c1)[C@H](C)CN([C@@H](C)CO)S2(=O)=O
 : -34, -24
COc1ccc(CNC(=O)C[C@H]2C=C[C@H](NS(=O)(=O)c3cccc(OC)c3)[C@@H](CO)O2)cc1
 : 4, -2
COc1ccc(NC(=O)Nc2ccc3c(c2)C(=O)N([C@H](C)CO)C[C@@H](C)[C@@H](CN(C)S(=O)(=O)c2ccc(F)cc2)OCCCC[C@@H](C)O3)cc1
 : -6, 0
COCC(=O)Nc1ccc2c(c1)[C@H]1C[C@@H](CC(=O)N(C)C)O[C@H](CO)[C@H]1O2
 : 2, 7
Cc1ccc(S(=O)(=O)NCC[C@@H]2CC[C@H](NC(=O)NC(C)C)[C@@H](CO)O2)cc1
 : 10, 12
C[C@@H]1CCCCO[C@H](CN(C)Cc2ccc(C(=O)O)cc2)[C@@H](C)CN([C@H](C)CO)C(=O)c2cc(NC(=O)NC3CCCCC3)ccc2O1
 : 22, 11
C[C@H](CO)N1C[C@H](C)[C@@H](CN(C)Cc2ccc(Cl)c(Cl)c2)Oc2ccc(NC(=O)C3CCCCC3)cc2CC1=O
 : ?, ·
CNC[C@H]1Oc2c(NC(=O)Nc3ccc(OC)cc3)cccc2C(=O)N([C@H](C)CO)C[C@H]1C
 : 0, 13
CCCN1C[C@H](C)[C@@H](OC)CN(C)C(=O)c2ccc(NC(=O)Nc3cccc(F)c3)cc2OC[C@H]1C
 : -7, -1
C[C@@H]1CCCCO[C@H](CN(C)Cc2ccc(Cl)c(Cl)c2)[C@@H](C)CN([C@H](C)CO)C(=O)c2cc(NC(=O)NC3CCCCC3)ccc2O1
 : -3, 4
CO[C@@H]1CN(C)C(=O)c2cc(NC(C)=O)ccc2OC[C@@H](C)N(C(=O)c2ccccn2)C[C@@H]1C
 : 11, 11
O=C(C[C@@H]1C[C@H]2c3cc(NC(=O)NC4CCCC4)ccc3O[C@H]2[C@H](CO)O1)NCCc1ccccc1
 : 5, 8
CO[C@@H]1CN(C)C(=O)c2cc(NC(=O)C3CC3)ccc2OC[C@H](C)N(CC2CCCC2)C[C@H]1C
 : -12, -6
CC(C)c1cn(CC[C@@H]2CC[C@H](NS(=O)(=O)c3ccc(F)cc3)[C@H](CO)O2)nn1
 : 13, 4
OC[C@@H]1[C@@H](c2ccc(/C=C/c3ccccc3)cc2)[C@@H]2CN(Cc3cccnc3)CCCCN12
 : ?, ·
O=C(C[C@@H]1CC[C@H](NC(=O)Nc2cc(F)ccc2F)[C@@H](CO)O1)Nc1ccc(-c2ccccc2)cc1
 : 2, -3
C[C@H]1CN([C@@H](C)CO)C(=O)Cc2cc(NC(=O)CCCCCC(=O)Nc3ccccc3N)ccc2O[C@@H]1CN(C)C(=O)Nc1ccc2c(c1)OCO2
 : 11, 8
COc1ccc(S(=O)(=O)N2CCCCN3[C@H](C2)[C@@H](c2ccc(C#CC(C)C)cc2)[C@@H]3CO)cc1
 : -28, -50
O=C(C[C@@H]1CC[C@@H]2[C@H](COC[C@H](O)CN2S(=O)(=O)c2ccccc2)O1)NCc1ccc2c(c1)OCO2
 : 2, -2
CN(C)CC(=O)N1CC2(C1)[C@H](c1ccccc1)[C@H](CO)N2C(=O)C1CC1
 : 0, 7
CC(=O)N1CC[C@@H]2[C@H](CO)Nc3ccc(-c4cccc(F)c4)cc3[C@@H]21
 : 19, 7
COc1ccc([Si](C)(C)[C@H]2[C@H](CCn3cc(CCO)nn3)O[C@@]3(C(=O)N(C)c4ccccc43)[C@@H]2C)cc1
 : ?, ·
C[C@@H]1CN([C@@H](C)CO)C(=O)c2cc(NS(=O)(=O)c3ccccc3)ccc2O[C@H]1CN(C)C
 : 14, 12
Cc1cccc(S(=O)(=O)N[C@@H]2CC[C@@H](CCn3cc(-c4ccccn4)nn3)O[C@H]2CO)c1
 : -10, 1
CO[C@H]1CN(C)C(=O)c2cc(NS(C)(=O)=O)ccc2OC[C@H](C)N(CCC(F)(F)F)C[C@@H]1C
 : -3, -5
COc1ccc(S(=O)(=O)N(C)C[C@@H]2OCCCC[C@@H](C)Oc3ccc(NS(=O)(=O)c4c(C)noc4C)cc3C(=O)N([C@H](C)CO)C[C@H]2C)cc1
 : ?, ·
CC(C)NC(=O)Nc1ccc2c(c1)CC(=O)N([C@@H](C)CO)C[C@@H](C)[C@@H](CN(C)CC1CC1)O2
 : 5, 5

7 entries from above in a different format:
Molecule	Vaccinia inh	Vaccinia inh Venus
COc1ccccc1-c1ccc2c(c1)O[C@@H](CN(C)C(=O)Nc1cccc(F)c1)[C@H](C)CN([C@@H](C)CO)S2(=O)=O	-34	-24
COc1ccc(CNC(=O)C[C@H]2C=C[C@H](NS(=O)(=O)c3cccc(OC)c3)[C@@H](CO)O2)cc1	4	-2
COc1ccc(NC(=O)Nc2ccc3c(c2)C(=O)N([C@H](C)CO)C[C@@H](C)[C@@H](CN(C)S(=O)(=O)c2ccc(F)cc2)OCCCC[C@@H](C)O3)cc1	-6	0
COCC(=O)Nc1ccc2c(c1)[C@H]1C[C@@H](CC(=O)N(C)C)O[C@H](CO)[C@H]1O2	2	7
Cc1ccc(S(=O)(=O)NCC[C@@H]2CC[C@H](NC(=O)NC(C)C)[C@@H](CO)O2)cc1	10	12
C[C@@H]1CCCCO[C@H](CN(C)Cc2ccc(C(=O)O)cc2)[C@@H](C)CN([C@H](C)CO)C(=O)c2cc(NC(=O)NC3CCCCC3)ccc2O1	22	11
C[C@H](CO)N1C[C@H](C)[C@@H](CN(C)Cc2ccc(Cl)c(Cl)c2)Oc2ccc(NC(=O)C3CCCCC3)cc2CC1=O	?	·

More records.
Every second line gives: Vaccinia inh, Vaccinia inh Venus
COc1cccc(NC(=O)Nc2ccc3c(c2)C(=O)N(C)[C@H]2CC[C@@H](CC(=O)NCCc4ccccc4)O[C@H]2CO3)c1
 : -12, -4
COc1cccc(NC(=O)N2C[C@@H](O)COC[C@H]3O[C@@H](CC(=O)N(C)C)CC[C@@H]32)c1
 : 8, 8
CC(C)NC(=O)N[C@H]1C=C[C@H](CC(=O)NCc2ccc(Oc3ccccc3)cc2)O[C@@H]1CO
 : 4, 16
C[C@@H]1CCCCO[C@H](CN(C)C(=O)c2ccccc2)[C@H](C)CN([C@H](C)CO)C(=O)c2cc(N(C)C)ccc2O1
 : -15, -4
C[C@@H]1CN([C@H](C)CO)C(=O)c2ccccc2-c2ccccc2CO[C@@H]1CN(C)C(=O)N[C@H](C)c1ccccc1
 : 15, 3
CO[C@@H]1CN(C)C(=O)c2cc(NC(=O)C3CCOCC3)ccc2OC[C@@H](C)N(CC2CCOCC2)C[C@H]1C
 : -1, -1
C[C@H]1CN([C@@H](C)CO)C(=O)c2cc(C3=CCCCC3)cnc2O[C@@H]1CN(C)Cc1ccncc1
 : -22, -16
O=C(Cc1ccccc1)N1C[C@@H]2[C@H](c3ccccc31)[C@H](CO)N2Cc1ccccc1
 : -14, -2
C[C@@H]1CN([C@H](C)CO)C(=O)c2cc(NC(=O)c3ccccc3)ccc2O[C@@H](C)CCCCO[C@H]1CN(C)C(=O)Nc1ccc2c(c1)OCO2
 : 0, -1
Cc1ccc(S(=O)(=O)N(C)C[C@H]2Oc3cc(C#CC4CCCC4)ccc3S(=O)(=O)N([C@H](C)CO)C[C@H]2C)cc1
 : ?, ·
C[C@@H]1CN([C@H](C)CO)C(=O)c2cc(NC(=O)CCCN(C)C)ccc2O[C@@H](C)CCCCO[C@@H]1CN(C)Cc1ccc(C(=O)O)cc1
 : 9, 4
O=C(CCN1CCCCC1)NCC[C@@H]1CC[C@H](NC(=O)Nc2ccc(F)cc2)[C@H](CO)O1
 : 0, 8
CC(C)C#Cc1ccc([C@@H]2[C@@H](CO)N3C(=O)CN(S(=O)(=O)c4ccccc4)C[C@H]23)cc1
 : -30, -21
C/C=C/c1cnc2c(c1)C(=O)N([C@H](C)CO)C[C@@H](C)[C@@H](CN(C)S(=O)(=O)c1cn(C)cn1)O2
 : 19, 2
C[C@@H]1CN([C@@H](C)CO)C(=O)c2cc(NC(=O)CCC(F)(F)F)ccc2O[C@@H]1CN(C)CC1CCCCC1
 : -10, -7
CN1C[C@@H](O)COC[C@@H]2O[C@@H](CC(=O)N3CCN(c4ccccc4)CC3)CC[C@H]21
 : 9, 12
O=C(C[C@H]1C[C@H]2c3cc(NC(=O)C4CCOCC4)ccc3O[C@H]2[C@H](CO)O1)NCc1ccccc1
 : 12, 5
C[C@H](CO)N1C[C@H](C)[C@H](CN(C)S(=O)(=O)c2ccc(Oc3ccccc3)cc2)OCc2cn(nn2)CCCC1=O
 : -3, 9

Bioassay records from PubChem BioAssay.
